Mtb growth: Mycobacterium tuberculosis H37Rv growth inhibition, cell based, confirmatory dose response (AID 1949); hit rate 1.6% among 100,000; most inactive calls were filed without a number and no value below 0 was filed; inhibition, % at 10 µg/mL; hits with a dose series show IC50 in µg/mL; M. tuberculosis H37Rv growth inhibition;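 active = confirmed in a dose series; inconclusive = about 50% or more but not retested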;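 note: bacteria grown 7 days with compound before Alamar blue readout; 0% = untreated bacteria and 100% = reference antibiotic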
Numbers without * were called inactive; i = inactive; u = inconclusive.

SMILES,Mtb growth
CCc1cc(OCCCN2CC(C)OC(C)C2)ccc1Cl (stereo unspecified),i
COc1ccc(-c2cc(=O)oc3cc(OC(=O)c4cc(OC)c(OC)c(OC)c4)ccc23)cc1,5.1%
COc1ccc(N(C(C)C(=O)Nc2ccccc2Br)S(C)(=O)=O)cc1 (stereo unspecified),i
COc1ccccc1OCc1ccc(C(=O)NCc2ccco2)o1,i
Cc1cc(=O)oc2cc(OCCC#N)ccc12,i
CCCn1c(SCC(=O)N2CCOCC2)nnc1-c1ccc(Cl)cc1,i
COc1ccc(C2CC(=O)Nc3ccc4ccccc4c32)c(I)c1O (stereo unspecified),3.48µg/mL*
CCOc1cc(CNCC2CCCO2)ccc1OCc1ccccc1 (stereo unspecified),i
COc1ccccc1C(=O)Nc1nc2n(n1)C(c1ccccc1)C=C(c1ccccc1)N2 (stereo unspecified),10.7%
COc1ccc(Cl)cc1-c1n[nH]c(=S)n1-c1ccccc1,0.6%
Cc1cc(OC(=O)COc2cccc(C)c2C)ccc1Cl,7.0%
CCCCn1nnc(NC(=O)c2ccc(-c3ccccc3)cc2)n1,i
Oc1ccc(-c2csc(NCCc3ccccc3)n2)cc1O,i
Cc1cccc(C(=O)NC2CCS(=O)(=O)C2)c1 (stereo unspecified),3.5%
Cn1c2ccc(Br)cc2c2nnc(SCC(=O)Nc3nnc(COc4ccccc4)s3)nc21,40.1%
Cc1ccc(C(=O)Nc2cccc(OC(C)C)c2)o1,3.0%
Cc1cccc(N(CC(=O)O)S(C)(=O)=O)c1C,i
O=S(=O)(NC1CCCCCC1)c1ccc2c(c1)OCCO2,i
CCOc1ccccc1NC(=O)C1C2CCC3C(CCC21)C3(Cl)Cl (stereo unspecified),0.6%
CCOC(=O)C1CCN(C(=O)c2ccccc2Oc2ccccc2)CC1,i
CC(C)(CCC(=O)Nc1ccc(F)cc1F)C1CCCCC1,i
S=C(Nc1ccc(Oc2ccccc2)cc1)N1CCN(c2ncccn2)CC1,i
COc1ccccc1NC(=O)C1=C(C)NC(=O)NC1c1c(Cl)cccc1Cl (stereo unspecified),6.8%
COc1ccc(NC(=O)N2c3ccccc3CC2C)cc1OC (stereo unspecified),i
COc1cc(OC)c(S(=O)(=O)N2CCCCC2)cc1S(=O)(=O)N1CCCCC1,0.5%
Nc1nc(SCC(=O)N2CCOCC2)[nH]c(=O)c1-c1ccccc1,i
Cn1c(=O)c2ncn(CC(=O)Nc3ccc(F)cc3)c2n(C)c1=O,i
O=C(COc1ccc(C(=S)N2CCOCC2)cc1Cl)Nc1ccccc1Cl,i
COc1ccc(-c2csc(NC(=O)c3cc(Br)cc(C)c3OC)n2)cc1OC,2.7%
CCOC(=O)C(=O)Nc1ccc2c(c1)OCO2,2.1%
Cc1ccnc(NS(=O)(=O)c2ccc(NC(=O)CC34CC5CC(CC(C5)C3)C4)cc2)n1,i
CC(NC(=O)C1c2ccccc2Oc2ccccc21)C12CC3CC(CC(C3)C1)C2 (stereo unspecified),i
Cc1ccc(S(=O)(=O)N2CCCC(C(=O)Nc3cccnc3)C2)cc1 (stereo unspecified),0.9%
COC(=O)C1=C(C)NC(=O)C1(NC(=O)c1cccc(C)c1)C(F)(F)F (stereo unspecified),i
COc1cccc2cc(C(=O)Nc3cccc(C(=O)NCc4ccccc4)c3)c(=O)oc12,0.3%
CCOc1ccccc1C(=O)NCc1ccc(F)cc1,i
CCCCc1ccc(NC(=O)c2ccccc2SCCOC)cc1,0.0%
CCc1cccc(OCC(=O)Nc2ccc(F)cc2)c1,13.6%
C=CCn1c(Cc2ccc(OC)cc2)nnc1SCC(=O)Nc1cc(Cl)cc(Cl)c1,5.1%
COc1ccc(C(=O)Oc2c(C)cccc2C)cc1OC,6.1%
Cc1cccc(C(=O)NC(C)c2nnc(SCC(=O)Nc3ccc(Br)cc3C(C)C)n2C)c1 (stereo unspecified),i
O=C(CSc1nnc(-c2ccccc2)o1)n1c2c(c3ccccc31)CCCC2,i
Cc1ccc(-n2cnc3sc4c(c3c2=O)CCC4)cc1,2.6%
NCCNCCCSc1ccc(Cl)cc1,i
COC(=O)c1ccc(NC(=O)c2ccc(-c3cccc(Cl)c3C)o2)cc1,13.6%
CCc1ccc(-n2c(SCC(=O)Nc3ccc(C)cc3C)nnc2-c2ccncc2)cc1,i
O=C(Nc1ncnc2sc3c(c12)CCC3)c1ccccc1Cl,i
Brc1cccc(OCCCCN2CCOCC2)c1,i
CC(C)(C)C(=O)COc1ccc2c(-c3ccccc3)cc(=O)oc2c1,i
CCCc1nc(NC)nc(-c2ccccc2O)n1,0.0%
CCN1C(=O)/C(=c2\sc3nc(-c4ccccc4OC(C)=O)nn3c2=O)c2ccccc21,3.2%
CC(C)(C)c1cc(C(=O)NCCN2CCOCC2)cc(C(C)(C)C)c1,1.3%
COc1cc(SC)ccc1C(=O)Nc1ccc(Br)cc1C,i
Cc1nc2ccccc2n1C(F)(F)C(F)F,i
COc1ccc(CSc2nc(C)cc(C)c2C#N)cc1,i
COc1ccc(C)cc1NC(=O)C12CCC(C)(C(=O)O1)C2(C)C (stereo unspecified),i
Cc1ccc(NC(=O)c2ccc(-n3cnnn3)cc2)c(C)c1,i
Cc1cc(C)nc(NS(=O)(=O)c2ccc(NC(=S)NC(=O)c3ccccc3Br)cc2)n1,i
COc1ccc(N2CC(C(=O)NCc3ccc(Cl)cc3)CC2=O)cc1 (stereo unspecified),i
CCOC(=O)c1c(N)sc(C(=O)NC2CCCCC2)c1C,2.5%

Next part
SMILES,Mtb growth
O=C(CSc1nnc(-c2ccco2)c(-c2ccco2)n1)Nc1cccc([N+](=O)[O-])c1,i
COC(=O)c1cc(OC)c(OC)cc1NC(=S)N1CCN(Cc2ccc3c(c2)OCO3)CC1,i
COc1ccc(CCNC(=S)Nc2ccn(Cc3c(F)c(F)c(F)c(F)c3F)n2)cc1OC,0.6%
Cc1cc(=O)[nH]c(SCc2ccc([N+](=O)[O-])cc2)n1,i
CC(=O)NC(=S)Nc1ccc(S(=O)(=O)N(C)Cc2ccccc2)cc1,i
COc1ccccc1C(=O)NCCCC(=O)O,0.2%
Cn1c(=O)c2c(nc(SCc3nnc(N)s3)n2Cc2ccccc2Cl)n(C)c1=O,i
Cc1ccc(S(=O)(=O)N2CCN(S(=O)(=O)N3CCOCC3)CC2)c(C)c1,i
COC(=O)c1ccccc1NC(=O)c1cc(Cl)ccc1Cl,i
CN(CC(=O)Nc1ccc(Cl)c(Cl)c1)S(=O)(=O)c1ccc(F)cc1,i
Cc1ccc(C)c(C(NC(=O)c2ccccc2C)c2ccccc2)c1 (stereo unspecified),i
CC(=O)N1CCN(c2ccc(NC(=S)NC(=O)c3cc4ccccc4o3)cc2)CC1,2.74µg/mL*
O=S(=O)(c1ccc(F)cc1)N1CCC(N2CCN(Cc3ccccc3)CC2)CC1,0.6%
COc1ccc(C(=O)NC(=S)Nc2ccc(Cl)c(C(=O)O)c2)cc1Cl,3.6%
COc1ccc(OC)c(NC(=O)C2C3CCC(O3)C2C(=O)O)c1 (stereo unspecified),i
COCCNC(=S)NC12CC3CC(CC(C3)C1)C2,i
NC(=O)C1CCCN(C(=O)Nc2ccc(Cl)cc2)C1 (stereo unspecified),i
O=C(Nc1ccccc1-c1nc2ccccc2s1)c1ccco1,i
O=C(Nc1ccccc1Br)C1CC2CCCC(C1)C2=O (stereo unspecified),i
CS(=O)(=O)N(CC(=O)Nc1cccc(Cl)c1)c1ccc(F)cc1,3.2%
CC(C)c1cc(I)ccc1NC(=O)CSc1nc2ccccc2s1,i
Cc1cc(C(F)F)n2ncc(C(=O)NCCc3ccccc3Cl)c2n1,i
Cc1ccc(C(CC(=O)O)c2ccc(OC(C)C)cc2)cc1 (stereo unspecified),i
COc1ccc(C2CC(=O)C3=C(C2)NC(C)=C(C(=O)Nc2ccccc2C)C3c2ccc(OC)c(OC)c2)cc1OC (stereo unspecified),0.3%
CN(CC(=O)Nc1ccc2c(c1)OCCO2)S(=O)(=O)c1ccc(F)cc1,5.1%
NS(=O)(=O)c1ccc(CCNC(=O)c2c(Cl)cccc2Cl)cc1,i
COc1ccccc1NC(=O)c1cccc(NC(=O)c2ccco2)c1,i
O=C(Nc1ccccn1)c1cc(-c2ccncc2)nc2ccc(Cl)cc12,i
O=C(CN(Cc1ccc(F)cc1)S(=O)(=O)c1ccc(Cl)cc1)NCc1ccco1,i
O=C(Nc1cc([N+](=O)[O-])ccc1N1CCCC1)c1ccccc1,i
OC(c1ccccc1)(c1ccccc1)C1CCN(C(=S)Nc2ccc(Cl)cc2)CC1,i
CCCN1CCN(C(=S)Nc2sc(CC)cc2C(=O)OC)CC1,i
COc1ccc(/C=C/c2nc3ccccc3c(=O)n2-c2cccc(C(=O)O)c2)cc1,i
c1ccc2c(c1)OC1OC2Oc2ccccc21,i
CCCN1C=C(C(=O)OC)C(c2ccc([N+](=O)[O-])cc2)C(C(=O)OC)=C1,2.9%
C=CCNC(=O)C(=O)NC1CCCCC1,i
CN(CC(=O)NCc1ccc(F)cc1)S(=O)(=O)c1ccc2ccccc2c1,2.0%
COc1ccc(C(CC(=O)O)NS(=O)(=O)c2ccc(C)cc2)cc1 (stereo unspecified),9.6%
Cc1ccc(CC(=O)NCCC2=CCCCC2)cc1,i
C=C1N(c2ccccc2)C(=O)OC1(C)C,i
Cc1ccc(C(=O)N(Cc2nc(-c3ccc(C)cc3)no2)C(C)C)cc1,5.6%
O=C(Nc1ccc(-c2nc3cc(Cl)cc(Cl)c3o2)cc1)c1ccc(Br)o1,4.3%
Cc1ccnc(NC(=S)NC(=O)c2ccc(C)cc2C)c1,i
Nc1c2c(nc3ccccc13)N(C1CCCCC1)CC2,i
O=C(CNC(=O)c1ccco1)OCc1ccc(C(=O)Oc2ccccc2)cc1,i
COc1ccc(-c2csc(NC(=O)c3csc(C)c3)n2)cc1,i
CCc1c(C)sc(NC(=O)COc2ccccc2)c1C(=O)OC(C)C,i
CCOc1ccc(C)cc1S(=O)(=O)Nc1cccnc1,i
Cc1ccc(C(=O)NCCN(C)C)c(C)c1,5.0%
C=CCn1c(C)c(C(C)=O)c(N2CCCC2)nc1=S,i
O=C(Nc1ccc2c(c1)OCO2)N1CCN(C(c2ccccc2)c2ccccc2)CC1,0.4%
CCCN(CCC)S(=O)(=O)c1ccc(NC(=O)C(=O)OCC)cc1,i
COc1ccc(N2CCN(S(=O)(=O)c3ccc4ccccc4c3)CC2)cc1,i
CCOC(=O)CCSc1nc(C)cc(C(F)(F)F)c1C#N,i
CCOC(=O)c1c(-c2cccs2)csc1NC(=O)c1ccc2c(c1)OCCO2,i
COC(=O)c1cn(CCOc2cc(C)ccc2C(C)C)c2ccccc12,6.2%
COc1ccc(N2CCN(C(=O)CN(Cc3ccccc3)S(=O)(=O)c3ccc(C)cc3)CC2)cc1,1.1%
CCOC(=O)c1cc(Cc2ccccc2)sc1NC(=S)Nc1cc(OC)c(Cl)cc1OC,i
CC1CCCN(C(=S)Nc2ccc(Oc3ccccc3)cc2)C1 (stereo unspecified),i
COc1ccccc1OC(C)C(=O)Nc1nc2ccc(C)cc2s1 (stereo unspecified),34.9%

In the list so far, these have a tert-butyl group.
SMILES,Mtb growth
CC(C)(C)C(=O)COc1ccc2c(-c3ccccc3)cc(=O)oc2c1,i
CC(C)(C)c1cc(C(=O)NCCN2CCOCC2)cc(C(C)(C)C)c1,1.3%

Going on with the list:
SMILES,Mtb growth
Cc1ccnc(NC(=O)Cn2cnc3c(=O)n(C)c(=O)n(C)c32)c1,i
O=C(NCCC1=CCCCC1)C12CC3CC(CC(C3)C1)C2,11.2µg/mL*
COc1ccc(C(C)C)cc1S(=O)(=O)Nc1cccc(C(=O)O)c1,2.4%
Cc1ccccc1CSCC(=O)Nc1ccc(F)c(Cl)c1,i
CCOC(=O)N1CCN(C(=O)c2ccccc2NC(=O)c2ccc(OC)cc2)CC1,i
CC(C)(C)CC(=O)Nc1ccc(Nc2ccccc2)cc1,i
CN1CCN(c2nc(-c3ccc(Cl)cc3)nc3ccccc23)CC1,4.8%
CCN1CCN(c2ccc(NC(=O)c3cccnc3)cc2Cl)CC1,i
Cc1onc(-c2ccccc2)c1C(=O)Nc1nnc(CC(C)C)s1,i
N/C(=N/O)c1cn(Cc2ccccc2Cl)c2ccccc12,i
Cc1ccc(-c2nc3c4c5c(sc4ncn3n2)CCCCC5)cc1,1.7%
O=C(C[n+]1ccccc1)Nc1nc2ccccc2s1,i
COc1ccc(N2C(=O)C3(CCCCC3)C2c2ccc(Br)cc2)cc1 (stereo unspecified),i
O=C(CN1C(=O)c2ccccc2C1=O)N1CCN(C(=O)c2ccco2)CC1,i
COc1ccc(C(=O)N2CCC(C(=O)Nc3ccc(NC(C)=O)cc3)CC2)cc1,3.1%
COc1ccc(NC(=O)c2c(NCc3ccccn3)sc3c2CCC3)cc1,i
Cc1cc(Cl)cc(Cl)c1OCCOc1cccc2cccnc12,u
COc1cc(NC(=O)Nc2cc(OC)c(Cl)cc2OC)c(OC)cc1Cl,0.4%

Ordered by heavy-atom count (low to high): part of the list above.
SMILES,Mtb growth
CCOc1ccccc1NC(=O)C1C2CCC3C(CCC21)C3(Cl)Cl (stereo unspecified),0.6%
Cc1cc(C(F)F)n2ncc(C(=O)NCCc3ccccc3Cl)c2n1,i
CCOC(=O)c1c(-c2cccs2)csc1NC(=O)c1ccc2c(c1)OCCO2,i
Cn1c(=O)c2c(nc(SCc3nnc(N)s3)n2Cc2ccccc2Cl)n(C)c1=O,i
COC(=O)c1cc(OC)c(OC)cc1NC(=S)N1CCN(Cc2ccc3c(c2)OCO3)CC1,i

Only part of the results is shown; rates above refer to the full screens.
